Screening data deposited in PubChem by National Center for Advancing Translational Sciences (NCATS).
VACV mCherry inh – qHTS for Stage-Specific Inhibitors of Vaccinia Orthopoxvirus: mCherry Reporter Primary qHTS. Vaccinia virus mCherry reporter infection, fluorescence; about a quarter of the inactives have no number. Potency, µM (doses to about 36.5 µM), inactives show at the highest dose activity change, negative = inhibition, usual class: inhibitors. 310,000 compounds, 0.63% hits; active = well fitted inhibition curve with a large enough effect; inconclusive = small, poorly fitted or top-dose-only effect; inactive = no such curve, though single readings can be large or run the other way; tested in A549 cells; also: nearly all actives have a fitted effect of over 35% in size; inactives centre near -10
Vaccinia Venus – qHTS for Stage-Specific Inhibitors of Vaccinia Orthopoxvirus: Venus Reporter Primary qHTS; Vaccinia virus Venus reporter expression, fluorescence; Potency, µM (doses to about 36.5 µM), for inactives: top-dose activity change, negative = inhibition, actives largely listed as inhibitors; 330,000 compounds, 0.46% hits; AID 720580, 2013; active means well fitted inhibition curve with a large enough effect; inconclusive means small, poorly fitted or top-dose-only effect; inactive means no such curve, though single readings can be large or run the other way; tested in A549 cells; also: nearly all actives have a fitted effect of over 30% in size; inactives centre near -10
* = called active by the depositor; i = inactive; ? = inconclusive; / = no result given; & = joins results of further samples; [ ] = dose if it differs, or a comment. % is scaled to controls: 0 for no effect and ±100 for the full control effect; potency is read from the fitted curve at half-maximal effect.

1. CN(C)S(=O)(=O)c1cccc(NC(=O)COc2cccc3ccccc23)c1
2. Cc1ccc(S(=O)(=O)N2CCCCC2)cc1NC(=O)c1ccc2c(c1)OCO2
3. OCC(O)C(O)C(O)C(O)C1NCCS1 (configuration not stated)
4. CCO/C=N/c1c(C#N)c2c(c(=S)n1C)COC(C)(C)C2
5. O=C(c1ccc2c(c1)N(Cc1ccc(Cl)cc1)C(=O)c1ccccc1S2(=O)=O)N1CCN(c2ccccn2)CC1
assay / compound,1,2,3,4,5
VACV mCherry inh,-14%,-16%,i,/,-14%
Vaccinia Venus,-14%,-12%,-15%,-10%,-17%

6. Cc1c(Cl)cccc1NCC(=O)Nc1ccc(Cl)cc1F
7. CSc1nnc2c(n1)OC=Nc1ccccc1-2
8. COc1nnc(-c2ccc(N3CCCCC3)c(NC(=O)COc3ccccc3)c2)c2ccccc12
9. NN=C1C(=O)c2cccc3cccc1c23
10. Cc1ccnc(SCc2cc(=O)c(OC(=O)c3cccs3)co2)n1
assay / compound,6,7,8,9,10
VACV mCherry inh,-5%,-18%,-7%,-11%,?
Vaccinia Venus,-21%,-5%,0%,-4%,-8%

11. CC1=C(C(=O)N(C)C)CC(CC(=O)NCCc2ccccn2)C(=O)N1CCC1=CCCCC1 (configuration not stated)
12. Cc1cc(NS(=O)(=O)c2ccc(NC(=O)NC3CCCCC3)cc2)no1
13. CCNC(=S)N1CCN(c2ccccn2)CC1
14. CC1CN(C(=O)COc2ccc3ccccc3c2Br)CC(C)O1 (configuration not stated)
15. CCOc1ccccc1NC(=O)COC(=O)Cc1cccs1
assay / compound,11,12,13,14,15
VACV mCherry inh,-4%,-9%,-6%,-29%,-8%
Vaccinia Venus,8%,-13%,-14%,-17%,-10%

16. Cc1ccc(C(CC(=O)NCCCN(C)C)c2ccc(OC(C)C)cc2)cc1 (configuration not stated)
17. COc1ccccc1NC(=O)c1ccc(N)cc1
18. CS(=O)(=O)c1ccc(Cl)c(NC(=O)c2ccc(-n3cncn3)c([N+](=O)[O-])c2)c1
19. CC(C)OCc1c(C(=O)Nc2nccs2)oc2ccccc12
20. CCCNC(=S)Nc1cccc(C(F)(F)F)c1
assay / compound,16,17,18,19,20
VACV mCherry inh,i[7.34 µM],i,-9%,-17%,-6%
Vaccinia Venus,-6%[7.34 µM],-2%,-1%,-21%,-11%

21. CCOC(=O)C1Nc2ccccc2C2C(O)C(O)CC12 (configuration not stated)
22. CC1(C(=O)NS(=O)(=O)Cc2cccc(Cl)c2)CCN1C(=O)c1cccc(F)c1 (configuration not stated)
23. COc1ccc(OC)c(NC(=O)COC(=O)Cc2ccsc2)c1
24. O=C(Nc1ccc(F)cc1)C1CCCCC1
25. CCOc1ccc(CCNC(=O)c2cc3c(=O)n(C)c4ccccc4c3n2C)cc1OCC
assay / compound,21,22,23,24,25
VACV mCherry inh,i,i,-15%,/,-19%
Vaccinia Venus,10%,1%,-9%,-16%,-20%

26. CC(=O)Nc1cc(NC(C)=O)cc(C(=O)OCC(=O)c2ccc3c(c2)OCO3)c1
27. COc1cc(/C=C2\NC(=S)NC2=O)ccc1OCc1cccc(C(=O)O)c1
28. CCNc1nc(NC(C)C)nc(OCCOC(=O)Nc2ccccc2)n1
29. COc1ccc(-c2cccc(NS(=O)(=O)c3ccccc3[N+](=O)[O-])c2)nn1
30. Cc1ccc(C)c(CSc2c(C(C)C)cnc3c2c(=O)n(C)c(=O)n3C)c1
assay / compound,26,27,28,29,30
VACV mCherry inh,-14%,i,i,-17%,-2%
Vaccinia Venus,-13%,-14%,-12%,3%,-9%

31. COc1cc(C(=O)Oc2cccc(C)c2)cc(OC)c1OC
32. CCCNC(=O)CCNC(=O)[C@H](O)C(C)(C)CO
33. Cc1cc(C)n2cc(CSCc3ccco3)nc2n1
34. COC(=O)Cn1ncn2c(cc3oc(C)cc32)c1=O
35. Cc1ccc(S(=O)(=O)c2nc(-c3ccccc3Br)oc2N(C)C)cc1
assay / compound,31,32,33,34,35
VACV mCherry inh,/,-12%,i,/,?
Vaccinia Venus,7%,0%,-8%,-5%,-17%

36. O=C(NCCO)c1ccc2nc(-c3ccco3)c(-c3ccco3)nc2c1
37. Cc1nn(-c2ncc(C(F)(F)F)cc2Cl)c(=O)n1-c1c(F)cccc1F
38. COC(=O)c1ccc(/C=C/C(=O)OCC(=O)Nc2cc(C)on2)cc1
39. CC1CCCCC1NC(=O)/C(C#N)=C/c1ccc(OCC(N)=O)cc1 (configuration not stated)
40. CCOc1ccc(OCc2ccc(C(=O)N3CCCC3)o2)cc1
assay / compound,36,37,38,39,40
VACV mCherry inh,-7%,-5%,-2%,-22%,-2%
Vaccinia Venus,-15%,-28%,1%,-16%,-18%

41. COc1ccc(-c2n[nH]c(C)c2-c2ccc(OC)c(OC)c2)c(O)c1
42. CN(CCC#N)C(=O)CSc1nc2scc(-c3ccccc3)c2c(=O)[nH]1
43. Cc1oc2ncnc(N3CCCCC3)c2c1C(=O)Nc1cccc(F)c1
44. COc1ccc(S(=O)(=O)Nc2ccc3c(c2)OCO3)cc1C
45. O=C(CNC(=O)c1ccco1)Nc1ccc2c(c1)OCCO2
assay / compound,41,42,43,44,45
VACV mCherry inh,/,0%,i,-10%,-4%
Vaccinia Venus,?,-13%,-10%,-13%,-12%

Overlap with the part before: three compounds, followed by the next part.
43. Cc1oc2ncnc(N3CCCCC3)c2c1C(=O)Nc1cccc(F)c1
44. COc1ccc(S(=O)(=O)Nc2ccc3c(c2)OCO3)cc1C
45. O=C(CNC(=O)c1ccco1)Nc1ccc2c(c1)OCCO2
46. O=C(NCc1ccccc1)[C@]1(C(F)(F)F)C[C@H](CCc2ccccc2)CCCO1
47. CCN(CC)CCCNC(=S)N1CCN(c2nc(-c3ccc(F)cc3)cs2)CC1
48. Cc1ccccc1-n1c(O)c(/C=N/NC(=O)c2ccccc2O)c(=O)[nH]c1=S
49. Cc1ccc2c(CC(=O)Nc3c(C(=O)c4ccc(F)cc4)oc4ccccc34)coc2c1C
50. Cc1cc(Nc2ccccc2)nc2cc(O)ccc12
assay / compound,43,44,45,46,47,48,49,50
VACV mCherry inh,i,-10%,-4%,i,i,?,i,-21%
Vaccinia Venus,-10%,-13%,-12%,-10%,?,0%,-13%,-10%

51. O=C(NCCCNC(=O)c1ccc(Cl)cc1Cl)c1cnccn1
52. C#CC(C)(C)NC(=O)c1ccc(-c2ccccc2F)cc1
53. C[C@@H]1CCCCO[C@@H](CN(C)Cc2ccc(Cl)c(Cl)c2)[C@@H](C)CN([C@H](C)CO)C(=O)c2cc(NC(=O)Nc3ccccc3)ccc2O1
54. Cn1nnnc1P(=O)(c1ccccc1)c1ccccc1
55. CC(=O)N1CCC(C(=O)Nc2ccc(S(=O)(=O)N3CCCCC3)cc2)CC1
assay / compound,51,52,53,54,55
VACV mCherry inh,i,i,-27%,-13%,-17%
Vaccinia Venus,-1%,-22%,-17%,-6%,-7%

56. CN(C)c1ccc(C(CNC(=O)c2ccc(C(C)(C)C)cc2)N2CCCC2)cc1 (configuration not stated)
57. O=[N+]([O-])c1ccc(S(=O)(=O)N2CCC3(CC2)OCCN3S(=O)(=O)c2cccs2)cc1
58. CC(C(=O)O)N1C(=O)C2C3CC(C2C1=O)C1C(c2ccccc2)c2sc(=O)[nH]c2SC31 (configuration not stated)
59. COc1ccc(C)cc1-n1nnnc1SCC(=O)NNC(=O)c1ccc([N+](=O)[O-])cc1
60. COc1ccc(CNC(=O)c2ccc(-c3ccccc3)cc2)cc1
assay / compound,56,57,58,59,60
VACV mCherry inh,-22%,-17%,i,i,-15%[1.46 µM]
Vaccinia Venus,-27%,-14%,-11%,9%,-8%

61. CCCCCCCCC(=O)NCc1ccc(O)c(OC)c1
62. COc1cc(/C=C/C(=O)O)cc(S(=O)(=O)Nc2ccc3nc(SC)sc3c2)c1OC
63. COc1ccccc1CNC(=O)CN1C(=O)NC2(CCCCCCC2)C1=O
64. Cc1cccc(-n2ncc3c(NCc4cccs4)ncnc32)c1
65. CSc1nn(CC(=O)Nc2ccccc2F)c(N)c1S(=O)(=O)c1ccccc1
assay / compound,61,62,63,64,65
VACV mCherry inh,16%,-3%,i,?,i
Vaccinia Venus,-19%&0%,-2%,-4%,-26%,-1%

7 entries from above, sorted by heavy-atom count, ascending:
7. CSc1nnc2c(n1)OC=Nc1ccccc1-2
17. COc1ccccc1NC(=O)c1ccc(N)cc1
33. Cc1cc(C)n2cc(CSCc3ccco3)nc2n1
15. CCOc1ccccc1NC(=O)COC(=O)Cc1cccs1
10. Cc1ccnc(SCc2cc(=O)c(OC(=O)c3cccs3)co2)n1
36. O=C(NCCO)c1ccc2nc(-c3ccco3)c(-c3ccco3)nc2c1
5. O=C(c1ccc2c(c1)N(Cc1ccc(Cl)cc1)C(=O)c1ccccc1S2(=O)=O)N1CCN(c2ccccn2)CC1
assay / compound,7,17,33,15,10,36,5
VACV mCherry inh,-18%,i,i,-8%,?,-7%,-14%
Vaccinia Venus,-5%,-2%,-8%,-10%,-8%,-15%,-17%

The listing continues.
66. CCN1C(=O)[C@H]2[C@@H](c3ccc(OC)cc3)N[C@]3(CCCN(CC4CCCCC4)C3=O)[C@H]2C1=O
67. COc1ccc(OC)c(CNC(=O)c2cc3c(-c4ccc(OC)c(OC)c4)nn(C)c3s2)c1
68. COc1ccc(-c2ccc3c(c2)S(=O)(=O)c2cccc(C(=O)NCc4ccccc4Cl)c2C3=O)cc1OC
69. O=C(c1ccc([N+](=O)[O-])s1)N1CCN(c2cccc(Cl)c2)CC1
70. CC(C)(Cc1ccc(O)cc1)NC(=O)CC(=O)N/N=C/c1ccc([N+](=O)[O-])cc1
assay / compound,66,67,68,69,70
VACV mCherry inh,-4%,-18%,i,-29%,-11%
Vaccinia Venus,-7%,-4%,-1%,?,-11%

71. OC(c1ccc(Cl)c(Cl)c1)c1ncc(-c2ccccc2F)[nH]1 (configuration not stated)
72. CCCCNS(=O)(=O)c1ccc(OC)cc1
73. COC(=O)c1c(C)oc2ccc(N(C(=O)c3ccncc3)S(=O)(=O)c3ccc(Br)cc3)cc12
74. Cc1ccc2nc(NC(=O)COC(=O)c3ccc(Br)o3)sc2c1
75. c1ccc(-c2nn[nH]n2)cc1
assay / compound,71,72,73,74,75
VACV mCherry inh,i,-24%,-11%,/,-21%
Vaccinia Venus,?,-13%,-22%,-12%,-8%

76. O=[N+]([O-])c1ccc(N2CCCC2)cc1NCc1ccccc1
77. CCCCCCCNC(=O)C1(CC2CC(c3cccc(Br)c3)=NO2)CCN(C(=O)Cc2ccc(F)cc2)CC1 (configuration not stated)
78. CCCC(=O)N/N=C1\CS(=O)(=O)N(C)c2ccsc21
79. CCCCCCS(=O)Cc1ccccc1 (configuration not stated)
80. Cc1ccnc(Cc2ccccc2)n1
assay / compound,76,77,78,79,80
VACV mCherry inh,/,-1%,-10%,-2%,-27%
Vaccinia Venus,5%,-30%,-8%,-13%,-16%

81. NC(=O)CC(NC(=O)Cc1cccc2ccccc12)c1ccc(N2CCC(N3CCCCC3)CC2)c([N+](=O)[O-])c1 (configuration not stated)
82. CCOC(=O)c1cnc2cc(C(F)(F)F)ccc2c1N1CCN(c2ccc(F)cc2)CC1
83. O=C(c1cccs1)N1CCN(C(=O)c2ccco2)c2ccccc2C1
84. N#C/C(=C\c1ccc(N2CCOCC2)o1)C(=O)NCC1CCCO1 (configuration not stated)
85. CCCN1CNc2c(c(=O)[nH]c(=S)n2CCc2c(OC)cccc2OC)C1
assay / compound,81,82,83,84,85
VACV mCherry inh,i,-15%,/,i,i
Vaccinia Venus,-2%,-8%,-21%,0%,-13%

86. CCC(C)[C@H](NC(=O)Nc1cccc(Br)c1)C(=O)OC (some centres not stated)
87. COCc1cc(=O)[nH]c(/N=C(\N)Nc2ccccc2C)n1
88. COc1ccc(NC(=O)Nc2ccc3c(c2)C(=O)N([C@H](C)CO)C[C@H](C)[C@@H](CN(C)C(=O)NC2CCCCC2)O3)cc1
89. O=C(C1=NN(c2ccccc2)C2C(=O)N(c3ccccc3Cl)C(=O)C12)c1ccccc1 (configuration not stated)
90. CCN(Cc1ccc(OC)cc1)c1ccc(-c2nc(-c3ccncc3)no2)cc1[N+](=O)[O-]
91. COc1cc(NS(=O)(=O)c2ccc(F)cc2)c(OC)cc1NC(C)=O
92. Cc1cc(=O)n(Cc2cccc(Cl)c2)c2c1c(C)nn2C
93. COc1ccc(/C=N/NC(=O)c2ccn[nH]2)cc1CN1CCOCC1
assay / compound,86,87,88,89,90,91,92,93
VACV mCherry inh,-14%,/,-11%,-8%,-21%,/,-14%,-11%
Vaccinia Venus,-6%,-11%,-15%,7%,-15%,-8%,-2%,6%
